# Compound activity (PubChem)
# VDR inhibitor: inhibitors of human vitamin D receptor; Potency, µM, without a hit: max response, negative = inhibition, actives largely listed as inhibitors; AID 504847; actives 0.93% (n = 400,000); VDR-SRC2-3 peptide fluorescence polarization, 2 h; active means well fitted inhibition curve with a large enough effect; inconclusive means small, poorly fitted or top-dose-only effect, or another doubt; inactive means no such curve, though single readings can be large or run the other way; further: series mostly up to about 120 µM
# Target sequence (P11473 whole entry, looked up): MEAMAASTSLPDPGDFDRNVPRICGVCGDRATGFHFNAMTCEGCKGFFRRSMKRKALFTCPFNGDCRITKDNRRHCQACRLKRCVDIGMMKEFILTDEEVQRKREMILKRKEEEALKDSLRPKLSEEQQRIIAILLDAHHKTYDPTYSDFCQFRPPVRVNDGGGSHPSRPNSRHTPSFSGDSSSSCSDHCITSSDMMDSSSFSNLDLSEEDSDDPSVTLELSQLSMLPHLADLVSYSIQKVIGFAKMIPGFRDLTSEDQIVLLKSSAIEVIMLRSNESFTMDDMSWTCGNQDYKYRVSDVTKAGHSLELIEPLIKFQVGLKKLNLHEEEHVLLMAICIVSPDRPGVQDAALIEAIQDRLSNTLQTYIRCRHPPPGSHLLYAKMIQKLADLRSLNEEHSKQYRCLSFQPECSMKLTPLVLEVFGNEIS
#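 Compounds are added to VDR with labelled SRC2-3 coactivator peptide and held 2 h at room temperature. Inhibition of the VDR–peptide interaction is then read as a change in fluorescence polarization.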
# An asterisk follows results filed as active; ? = inconclusive; & = joins results of further samples; [ ] = another dose, or the depositor's remark. On the % scale 0 is the no-effect control and ±100 the full control effect; potency means the concentration at half of the fitted maximal effect. This is a subset; rates above refer to the full screens.
SMILES | VDR inhibitor
COC(=O)c1ccc(Nc2nc(N3CCOCC3)nc(N3CCOCC3)n2)cc1 | 1%
Cc1cccc(CN2CCN([C@@H](c3ccccc3)c3ccc(Cl)cc3)CC2)c1 | -13%
CC1=C(C(=O)OCc2ccccc2)C(c2cccs2)N2C(=O)CCSC2=N1 (centres undefined) | 10%
CCN(CC)c1ccc(CNc2nc3ccccc3n2C)cc1 | 6%
COc1ccc(Nc2ncc(C(=O)Nc3cccc(OC)c3)c3ccccc23)cc1 | -12%
CCOc1ccc(CCNC(=O)c2cc(Nc3ccc(C)cc3C)nc3ccccc23)cc1OCC | -17%
CCCCC(=O)N(c1ccc(OCC)cc1)C1C=CS(=O)(=O)C1 (centres undefined) | 5%
Cc1ccc(F)cc1NC(=O)C1CCCN(c2ncccn2)C1 (centres undefined) | 4%
CC(=O)Nc1ccc(S(=O)(=O)Nc2ccc(=O)n(Cc3ccc(Cl)c(Cl)c3)c2)cc1 | -6%
CCN(CC(=O)Nc1c(F)cccc1F)C(=O)C1CC(=O)N(c2ccc3c(c2)OCCO3)C1 (centres undefined) | -1%
COc1ccc(-n2ccn(CC(=O)NCCc3ccccc3)c(=O)c2=O)cc1OC | 4%
N#Cc1cccc(-c2ccc3ncnc(NCCN4CCOCC4)c3c2)c1 | -6%
C=CCN1c2ccccc2[C@]23C[C@@H](C(=O)OC)N(C(=O)c4cccs4)C2=NC(C(=O)OC)=C(C(=O)OC)[C@H]13 | 9%
NC(=O)c1nsc(C(=O)N(c2ccc3c(c2)OCO3)C(C(=O)NCC2CCCO2)c2ccc(F)cc2)c1N (centres undefined) | -7%
CCNc1ccc(C(=O)OCC)cc1NC(=O)c1cccc(N(C)C)c1 | 0%
CCCCC(O)(CCCC)C(=O)NN(C(=O)OCC)c1ccccc1 | 17%
COc1ccc(NC(=O)c2cc3c(CO)cnc(C)c3oc2=Nc2cc(OC)cc(OC)c2)cc1 | -17%
Cc1cccc(OCC(=O)NCc2nc(-c3ccccc3)no2)c1 | -9%
COC(=O)[C@H](Cc1ccccc1)NC(=O)NCc1ccc(C)cc1 | -14%
COc1ccc(-c2csc(NC(=O)CN3C(=O)CCC3=O)n2)c(OC)c1 | 0%
COc1ccc(N(CC(O)Cn2c3ccccc3c3ccccc32)S(=O)(=O)c2ccccc2)cc1 (centres undefined) | -4%
CCn1c(SCC(=O)N(Cc2ccccc2)C2CCS(=O)(=O)C2)nc2ccccc2c1=O (centres undefined) | 4%
Cc1ccc(NC(=O)c2ccc(NCCc3ccccc3)c([N+](=O)[O-])c2)cc1F | 4%
Cc1onc(-c2ccccc2)c1C(=O)Nc1ccc(C(=O)N2CCCCC2)cc1 | -16%
CC(=O)c1c(C)nc2cc(Cl)ccc2c1N | 6%
O=S(=O)(NCC1CCCO1)c1cc(Cl)ccc1Br (centres undefined) | 3%
CC[C@]12c3[nH]c4cc(CCC(=O)N(C)C)ccc4c3CCN1C(=O)[C@@H](CC(=O)NC/C=C(\C)CCC=C(C)C)C[C@@H]2C(=O)N1CCN(C(=O)c2ccco2)CC1 | -9%
Cc1cc(C(F)F)n2nc(C(=O)Nc3ccc(F)c(Cl)c3)nc2n1 | -5%
O=C(NCCCN1CCCCC1)C1CCN(S(=O)(=O)N2CCC3(CC2)OCCO3)CC1 | -7%
COc1ccc(OC)c(S(=O)(=O)N2CCN(C(=O)c3ccco3)CC2)c1 | -11%
O=C(CCC1CCCN(C(=O)Cc2cccc(F)c2)C1)N1CCN(c2ccccn2)CC1 (centres undefined) | -11%
CS(=O)(=O)N1CCc2cc(S(=O)(=O)NCCNS(=O)(=O)c3ccc4c(c3)CCN4S(C)(=O)=O)ccc21 | 15%
CCOC(=O)CCNC(=O)N1CCCC(C(=O)c2ccccc2SC)C1 (centres undefined) | 2%
CC(=O)c1ccc(N(CC(=O)NC2CCCCC2)C(=O)c2csnn2)cc1 | -11%
Cc1cc(C)n2nc(SCc3ccc(F)cc3Cl)nc2n1 | 3%
Cc1cc2cc(C)c3nnc(SCC(=O)Nc4ccc(S(=O)(=O)N5CCCCC5)cc4)n3c2cc1C | -16%
CCCn1c(C)cc(C(=O)CN2C(=O)c3cccc(N)c3C2=O)c1C | 1%
Cc1cc(C)cc(OCCCOc2cccc3cccnc23)c1 | 0%
CN(c1cccc(NC(=O)c2ccccc2N(Cc2ccccc2)S(C)(=O)=O)c1)S(C)(=O)=O | -18%
COc1ccc(/C=C/C(=O)O)cc1S(=O)(=O)NCC1CCCO1 (centres undefined) | -9%

# 4 records drawn at random from those above:
SMILES | VDR inhibitor
CCNc1ccc(C(=O)OCC)cc1NC(=O)c1cccc(N(C)C)c1 | 0%
CS(=O)(=O)N1CCc2cc(S(=O)(=O)NCCNS(=O)(=O)c3ccc4c(c3)CCN4S(C)(=O)=O)ccc21 | 15%
Cc1cc(C(F)F)n2nc(C(=O)Nc3ccc(F)c(Cl)c3)nc2n1 | -5%
CC(=O)Nc1ccc(S(=O)(=O)Nc2ccc(=O)n(Cc3ccc(Cl)c(Cl)c3)c2)cc1 | -6%

# (next part)
SMILES | VDR inhibitor
Cc1ccc2c(c1)CCCN2C(=O)CSc1ccccc1 | -10%
CCc1cccc(NC(=O)CCCn2nc(CC)n3c(cc4occc43)c2=O)c1 | -21%
CCOc1ccc(NC(=O)CCC(=O)NNC(=O)c2cccc([N+](=O)[O-])c2)cc1 | -3%
Cc1cc(NC(=O)c2ccc3c(c2)C(=O)N(Cc2cccnc2)C3=O)no1 | -2%
CC(C)n1c(SCC(=O)Nc2ccc(F)cc2)nnc1C1CC1 | -11%
COc1cccc(Nc2ccc(Nc3cccc(OC)c3)nn2)c1 | -17%
CC1CCCCN1CC(O)COc1ccc(OCC(O)CN2CCCCC2C)cc1 (centres undefined) | -12%
Cc1ccc(NC(=O)COc2ccc(/C=N\NC(=O)c3cccnc3)cc2)cc1C | 6%
COc1ccc(CNC(=O)CSc2n[nH]c(N)n2)cc1OC | -5%
Cc1cc(C)cc(OCC(=O)O/N=C(\N)c2ccccn2)c1 | -2%
O=C(CN1CCN(S(=O)(=O)c2ccc(F)cc2)CC1)c1ccc(O)c(O)c1 | 17%
COc1cccc2c1Oc1ncccc1N(C(=O)CCC(=O)NCc1ccc(C)cc1)C2 | 3%&0%
CC1(C)COC(c2cccc([N+](=O)[O-])c2)OC1 | -6%
CCc1nc(SCC(=O)NCC2CCCO2)c2oc3ccccc3c2n1 (centres undefined) | 11%
O=C(c1ccc2c(c1)N(Cc1ccccc1)C(=O)CS2)N1CCOCC1 | 1%
CC1CCN(C(=O)c2cc(-c3ccc(Cl)c(Cl)c3)on2)CC1 | 3%
Cc1ccc(-n2c(C)nn(Cc3ccc([N+](=O)[O-])cc3)c2=O)cc1 | -14%
O=S(=O)(NN=C1CCCCCCC1)c1ccc(Br)cc1 | -10%
CC1(c2nnc(Cc3ccccc3)o2)CC(c2c(Cl)cccc2Cl)=NO1 (centres undefined) | -5%
CCOC(=O)c1c(C)[nH]c(C(=O)C(C)OC(=O)c2cccc(OCc3c(C)noc3C)c2)c1C (centres undefined) | -14%
C=C1CCN([C@H](C(=O)Nc2ccc(OC)cc2)C(C)C)S(=O)(=O)c2ccccc21 | 4%
O=S(=O)(c1ccc(Cl)cc1)c1nc(-c2ccccc2F)oc1NCc1ccccc1 | ?
CCOP(=O)(OCC)C(Nc1cccc([N+](=O)[O-])c1)c1ccc(OC)cc1 (centres undefined) | -11%
COc1cccc(CNC(=S)NC2CCCC2)c1 | 2%
CS(=O)(=O)N(CC(=O)N/N=C/c1ccccn1)c1ccc(Oc2ccccc2)cc1 | -20%
COc1ccccc1NC(=O)CNC(=O)c1ccccc1C | 2%
CC(=O)c1cccc(N(CC(=O)NC2CCCC2)C(=O)c2ccc(C)s2)c1 | 48%[activator]
Cc1cc(C)n(-c2ccc(NC(=O)C3CCCCN3C(=O)c3cccs3)cc2)n1 (centres undefined) | -16%
CCOc1ccc(C2c3[nH]c4ccccc4c3CCN2C(=O)CSc2ccccc2)cc1 (centres undefined) | 9%
COc1cccc(OCCCN2CCCCC2)c1 | 1%
Cc1ccc(CC(=O)Nc2cc(C)on2)cc1 | -7%
CCNc1nc(NCC)n2c(SCC(=O)c3ccccc3F)nnc2n1 | -23%
CC(c1ccccc1)n1c(-c2ccncc2)n[nH]c1=S (centres undefined) | 9%
CCCN1C(=O)S/C(=C/c2ccc(N3CCOCC3)o2)C1=O | 89µM*
COc1ccc(C(CNC(=O)C(=O)Nc2ccc3c(c2)OCCO3)N2CCN(C)CC2)cc1 (centres undefined) | -16%
CCn1c(SCC(=O)NNC(=O)Cc2ccccc2)nnc1-c1ccccc1 | 6%
COC(=O)c1c(NC2=NS(=O)(=O)c3ccccc32)sc2c1CCC(C(C)(C)C)C2 (centres undefined) | 7%
CNCc1ccccc1Sc1ccc(O)c(O)c1 | ?
CC(=O)c1cccc(CN2CCN(CC=C(C)C)C(CCO)C2)c1 (centres undefined) | 6%
COc1ccccc1OCC(=O)N(Cc1ccco1)Cc1ccccc1F | 6%
C=CCN1C(=O)c2ccc(C(=O)NCCc3ccc(F)cc3)cc2C1=O | -14%
N=c1c2c(ncn1CCCO)Oc1c(ccc3ccccc13)C2c1ccccc1 (centres undefined) | -1%
CC(C)(C)S(=O)(=O)c1c(C(=O)O)cccc1C(=O)O | 0%
Cc1n[nH]c(C)c1CCN(C)Cc1cn(C)nc1-c1ccc2c(c1)OCCO2 | 19%
CCO[C@@H]1OC(C(=O)Nc2ccccc2)=C[C@H](c2ccc3c(c2)OCO3)[C@H]1CCCO | -20%
CCOC(=O)NNS(=O)(=O)c1cc(Br)ccc1Br | 8%
O=c1ccc2ccc(OS(=O)(=O)O)cc2o1 | 5%
Cc1nn(-c2ccc(F)cc2)c(Cl)c1/C=C(/CCC(=O)O)c1nc2ccccc2s1 | -10%
CC(C)c1[nH]nc2c1C(Cc1ccccc1)C(C#N)=C(N)O2 (centres undefined) | -15%
COc1ccc(CCN2CC(C(=O)N3CCC(O)(c4ccccc4)CC3)CCC2=O)cc1 (centres undefined) | -14%
Cc1cc(C)n(-c2nnc(NC(C)(C)C)nn2)n1 | 7%
COc1ccccc1N1CCN(C(=O)/C=C/c2cccc([N+](=O)[O-])c2)CC1 | 1%
COc1cc(C(=O)NCC2(c3ccccc3)CCCC2)cc(OC)c1OC | -6%
CCOC(=O)c1cccc(NC(=O)CCCn2nc(C)c3c(C)n(-c4ccccc4)nc3c2=O)c1 | -2%
O=[N+]([O-])c1ccc(Oc2ccc(OCc3ccccc3)cc2)nc1 | 0%
COc1ccc(NCC(=O)Nc2ccc(Br)cc2F)c(OC)c1 | -8%
Cc1cccc(C)c1NC(=O)CN(c1ccccn1)S(=O)(=O)c1ccccc1 | 1%
Cn1ncc(Br)c1C(=O)NC1CCCCCC1 | -9%
CC1=C(C#N)C(NC(=O)C2CC2)(C(F)(F)F)C(=O)N1 (centres undefined) | -2%
CCOc1ccc(NC(=O)CN(C)C(=O)c2ccc(N3CCCC3)c([N+](=O)[O-])c2)cc1OCC | -1%

# Another view of 3 compounds above.
compound: COc1ccc(NCC(=O)Nc2ccc(Br)cc2F)c(OC)c1
  VDR inhibitor = -8%

compound: Cc1cccc(C)c1NC(=O)CN(c1ccccn1)S(=O)(=O)c1ccccc1
  VDR inhibitor = 1%

compound: COc1ccc(CCN2CC(C(=O)N3CCC(O)(c4ccccc4)CC3)CCC2=O)cc1 (centres undefined)
  VDR inhibitor = -14%

# The list goes on:
SMILES | VDR inhibitor
CNC(=O)c1ccc(NC(=O)c2nsc3ccccc23)cc1 | 5%
CC(C)(C)c1ccc(S(=O)(=O)NCc2ccc(C(=O)NCc3ccccn3)cc2)cc1 | -9%
Cc1ccc(C(=O)NCCCNC(=O)c2cccnc2)cc1 | -8%
CC(C)CCNC(=O)c1c(CSc2ccccc2)noc1C(=O)NCc1ccccc1 | -11%
CC(C)(C)c1csc(NC(=O)Cn2cnc3ccccc3c2=O)n1 | ?
Cc1cc(S(=O)(=O)Nc2cc3c(cc2N2CCOCC2)n(C)c(=O)c(=O)n3C)ccc1F | 16%
COc1cc2c(cc1OC)C1=C(C#N)COCN1CC2 | -4%
O=C(c1cc(-c2ccncc2)nc2ccccc12)N1CCN(c2ccccc2O)CC1 | 7%
O=S(=O)(Nc1ccc(-c2ccc(NS(=O)(=O)c3ccccc3)cc2)cc1)c1ccccc1 | 0%
CC(C)(C)C1CCc2c(sc(NC(=O)c3noc4c3CCCC4)c2C#N)C1 (centres undefined) | ?
COc1cc(C)ccc1Oc1ncnc(N)c1[N+](=O)[O-] | -12%
CCCCS(=O)CC(O)COCC (centres undefined) | -3%
C=C1C(O)[C@@H]2O[C@]3(CC[C@H](/C=C/C(C)[C@@H]4CC(C)=CC5(O[C@H](C[C@@](C)(O)CO)CCC5O)O4)O3)CC[C@H]2O[C@@H]1C(O)CC(C)[C@H]1OC2(CCCCO2)CCC1C (some centres undefined) | 6%
CN1CCN(c2oc(-c3ccccc3F)nc2S(=O)(=O)c2ccc(Cl)cc2)CC1 | -9%
Fc1ccc(/C=N/Nc2nccnc2Cl)cc1 | -2%
CCC(=O)Nc1cc2c3c(c1)CCC(=O)N3CCC2 | 2%
COc1ccc(OC)c(S(=O)(=O)N2CCC(C(=O)NCC3CCCO3)CC2)c1 (centres undefined) | 27%
Cc1ccc(N=C/C(C(=O)C(F)(F)F)=C(\O)c2cccs2)cc1 | 2%
COc1ccc(CNC(=O)[C@H](NC(=O)C2CCN(C(=O)[C@@H](N)CCSC)CC2)C(C)C)cc1 | 14%
O=C(COc1ccccc1)Nc1ccc(CSc2ccccc2)cc1 | -2%
CCOC(=O)c1nc2nc(C)c(Cl)c(=O)n2[nH]1 | 10%
